# Screening results as filed in PubChem.
# PMP22 txn prim = modulates PMP22 transcription in S16 Schwann cells; S16 Pmp22-F2sN Schwann cells (luciferase reporters placed in the Pmp22 gene), FLuc/NLuc coincidence luminescence, 24 h; Potency, µM (titrated, usually from 57.5 µM), for the others: top-dose activity change, negative = inhibition, most hits filed as inhibitors; 43,000 compounds, 2% hits; active = clear falling dose curves in both reporters; inconclusive = both reporters move, but less clearly or upward; inactive = either reporter flat; the % is the NLuc reporter signal; also: % is scaled to controls: 0 for no effect and ±100 for the full control effect; some results filed as inactive show a strong effect at the top dose
#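 Transcriptional readout in edited S16(c9) cells: two luciferases reported from the Pmp22 locus, measured in turn after 24 h compound incubation.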
# HTT promoter inh = inhibitors of huntingtin promoter activity; HEK293 HTT promoter firefly luciferase reporter (activity 0% = vehicle and -100% = no light), 24 h; Potency, µM (titrated, usually from 57.5 µM), without a hit: top-dose activity change, negative = inhibition, most hits filed as inhibitors; 48,000 compounds, 0.93% hits; AID 1508623; active = well fitted inhibition curve with a large enough effect; inconclusive = small, poorly fitted or top-dose-only effect; inactive = no such curve, though single readings can be large or run the other way; also: nearly all actives have a fitted effect of over 50% in size
#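 Luminescence was read after Dual-Glo reagent and a 10 min room-temperature incubation. Values were normalized to vehicle (0% activity) and zero RLU (-100% activity). Reporter HEK293 cells had been exposed to compounds (up to 57.5 uM final) for 24 h.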
# The depositor's hits bear a star; ? = inconclusive; · = no result given; [ ] = another dose, or the depositor's remark. Potency is read from the fitted curve at half-maximal effect. This is a subset. The share of hits here may be higher or lower than overall.
SMILES,PMP22 txn prim,HTT promoter inh
COc1cc(C2c3c(-c4c(C)cc(C)cc4O)n[nH]c3C(=O)N2CCCOC(C)C)cc(OC)c1OC (configuration not stated),-25%,-19%
Cc1c(Cl)cccc1NC(=O)C(C)n1nnc2sc3c(c2c1=O)CCCC3 (configuration not stated),-2%,6%
O=C1C(=O)c2ccccc2C(O)=C1C1CCC(c2ccc(Cl)cc2)CC1 (configuration not stated),·,-3%
CCCN(CCC)C(=O)c1c[nH]c2ccc(S(=O)(=O)Nc3cc(C)cc(C)c3)cc2c1=O,5%,-4%
COc1ccc(NS(=O)(=O)c2ccc3c(c2)C(C(C)C)C(=O)N3)cc1 (configuration not stated),-20%,-25%
CCCOc1ccc(CNC(=O)C2CCN(c3nc4ccccc4nc3C(F)(F)F)CC2)cc1,-15%,1%
CCOc1ccc(-c2nc(CSCC(=O)NCCc3ccccc3)c(C)o2)cc1,?,7.1µM*
Cc1cc(C)c(NC(=O)Cn2cc(S(=O)(=O)Cc3ccccc3F)c3ccccc32)c(C)c1,0%,-13%
Cc1ccc(NC(=O)NCCOCCn2c(=O)oc3ccccc32)c(C)c1,-6%,-9%
O=C(NCC(c1ccc2c(c1)OCO2)N1CCN(c2ccccc2)CC1)c1ccccc1 (configuration not stated),-2%,?
CSc1ccc(CCNC(=O)c2ccc(-c3nc(COc4ccc(C)cc4)c(C)o3)cc2)cc1,-6%,-11%
Cc1ccc(NC(=O)CSc2nnc3scc(-c4ccc(Cl)cc4)n23)cc1,-6%,-26%
Cc1ccccc1CNC(=O)c1cc2cccc3c2n1CC(C)S3 (configuration not stated),-26%,-28%
CCCC(O)c1nc2ccccc2n1Cc1ccccc1OC (configuration not stated),?,?
O=C(Nc1ccc(Br)cc1)C1CCCN1S(=O)(=O)c1ccc(F)cc1 (configuration not stated),-7%,35µM*
Cc1ccc(NC(=O)c2ccc(Cl)cc2Cl)c(C(=O)c2ccccc2)c1,13%,-21%
Cc1ccc(Cn2c(=O)n(CC3CCC(C(=O)N4CCC(C)CC4)CC3)c(=O)c3sccc32)cc1 (configuration not stated),?,-2%
COc1ccc(Nc2c(-c3cccc(O)c3)nc3cnccn23)cc1,-7%,7%
Cc1ccc(NC(=O)CC(C)S(=O)(=O)c2ccc3c(c2)NC(=O)CO3)cc1Cl (configuration not stated),-17%,7%
Cc1c(-c2nsc(NC(=O)c3ccc(Cl)cc3)n2)nnn1-c1ccc(C(C)C)cc1,-37%,?
COc1ccc(C)cc1NC(=O)c1oc2ccc(S(=O)(=O)N3CCC4(CC3)OCCO4)cc2c1C,?,-2%
Cc1ccc(NC(=O)C2CCCN(S(=O)(=O)c3cccc4nsnc34)C2)c(C)c1 (configuration not stated),?,-15%
COc1cc(C2c3c(-c4cc(C)ccc4O)n[nH]c3C(=O)N2Cc2ccco2)cc(OC)c1OC (configuration not stated),-12%,-7%
COc1ccc(NC(=O)CN2CCN(CC(=O)Nc3ccccc3F)CC2)c(OC)c1,-33%,?
Cc1cc(C)c2c(-n3cccc3)c(C(=O)NCCCN3CCCCC3C)sc2n1 (configuration not stated),?,-3%

# Taken from above.
# For HTT promoter inh, COc1ccc(C)cc1NC(=O)c1oc2ccc(S(=O)(=O)N3CCC4(CC3)OCCO4)cc2c1C has the entry -2%
# For HTT promoter inh, COc1ccc(NS(=O)(=O)c2ccc3c(c2)C(C(C)C)C(=O)N3)cc1 (configuration not stated) has the entry -25%

# Continuation:
SMILES,PMP22 txn prim,HTT promoter inh
CCC1NC(=O)c2cc(S(N)(=O)=O)c(Cl)cc2N1 (configuration not stated),·,5%
COc1cc(OC)c(NC(=O)N2CCc3cc(OC)c(OC)cc3C2CC(=O)O)cc1Cl (configuration not stated),?,-14%
O=C(NCC1CCN(Cc2cccc(Cl)c2)CC1)c1cc2ccc3cccnc3c2[nH]1,-15%,-4%
CN(C)S(=O)(=O)c1ccc2c(c1)N(CC(=O)Nc1ccc(OC(F)(F)F)cc1)C(=O)CS2,9%,?
O=C(Cc1ccc(-c2ccccc2)cc1)NCCS(=O)(=O)N1CCN(c2ccccc2)CC1,?,?
Cc1cccc(C)c1NC(=O)c1nc(SC(C)C)ncc1Cl,8%,-31%
O=[N+]([O-])c1cc(-c2nc(-c3ccccc3)no2)ccc1NCc1cccnc1,?,-23%
Cc1ccc(OCc2nc(-c3ccc(C(=O)N4CCN(c5ccccc5F)CC4)cc3)oc2C)cc1,?,-19%
COc1ccc(-c2[nH]ncc2C(=O)NCc2ccc(F)cc2)cc1,0%,-21%
Cn1nnc2c(N3CCN(c4ccccc4Cl)CC3)ncnc21,-80%,-18%
Cc1ccc(/C=C/c2onc(C)c2S(=O)(=O)N2CCC(C(=O)Nc3ccc(C)c(N(C)C)c3)CC2)cc1,?,-21%
Cc1ccc(-c2nc(S(=O)(=O)c3ccccc3)c(N3CCN(c4ccccc4)CC3)o2)cc1,-15%,-4%
CCOC(=O)c1ccc(NC(=O)C2CCCN(c3cnccn3)C2)cc1 (configuration not stated),2%,16%
COc1cc(NC(=O)c2nnn(CC(=O)Nc3ccccc3)c2N)cc(OC)c1,?,-14%
CCc1ccc(NC(=O)C2CCN(c3cc(C)nc4c(-c5ccc(Cl)cc5)c(C)nn34)CC2)cc1,-2%,15%
COc1ccccc1N1CCN(S(=O)(=O)c2ccc(-c3cnc(C4CC4)o3)cc2)CC1,?,-9%
Cn1nc(-c2ccccc2)c(-c2ccccc2)c(C(=O)Nc2ccc(S(N)(=O)=O)cc2)c1=O,7%,-11%
O=C(CSC1=Nc2ccccc2N=C(c2ccc(F)cc2)C1)Nc1cccc(C(F)(F)F)c1,?,?
COc1ccc(-c2[nH]ncc2C(=O)NCc2ccccc2OC)cc1,1%,-23%
CCN(CC)C(=O)c1cc(-c2ccc(Cl)cc2)on1,-23%,50%[activator]
CC1=C(c2ccc(C(C)C)cc2)S(=O)(=O)N=C1N1CCC(C(=O)NCCc2ccco2)CC1,-37%,?
COc1cc(Cl)cn2c(-c3cccc(NC4CNC4)n3)cnc12,·,-28%
COc1ccc(-c2nnc(SCC(=O)Nc3ccc(C(C)C)cc3)nc2-c2ccc(OC)c(OC)c2)cc1OC,?,?
COc1cccc(-c2nc(CS(=O)(=O)CC(=O)Nc3cccc(C(C)=O)c3)c(C)o2)c1,-122%,?
CC(C)Cc1nn2c(=O)cc(COC(=O)c3ccc(NC(=O)CCc4ccccc4)cc3)nc2s1,-11%,0%
SMILES,PMP22 txn prim,HTT promoter inh
CCN(CC)S(=O)(=O)c1ccc(OC)c(-n2cnnn2)c1,-6%,0%
COc1cc(OC)c(NC(=O)N2CCc3c(sc4c3CCCC4)C2c2ccccc2)cc1Cl (configuration not stated),-10%,-29%
COC(=O)c1ccc(CSc2nc3c([nH]c4ccccc43)c(=O)n2-c2ccc(OC)cc2)o1,?,-17%
Cc1cc(C)c2oc(-c3cccc(NC(=O)c4ccc(-c5cccc([N+](=O)[O-])c5)o4)c3)nc2c1,-27%,6%
COc1ccccc1C(=O)NCc1nnnn1-c1ccc(C)c(C)c1,16%,6%
Cc1ccc(-n2nc(C)c3c(C(=O)NCc4ccccc4)cc(C4CC4)nc32)cc1,-30%,-15%
Cc1ccc(CN2CCSc3ccc(C(=O)N4CCN(c5cccc(C)c5C)CC4)cc32)cc1,?,?
CC(C)c1ccc(Nc2c(-c3ccccn3)nc3ccccn23)cc1,14µM*,25µM*
CCOCCCNC(=O)C(c1ccccc1)N(Cc1ccc2c(c1)OCO2)C(=O)c1ccc(NC(C)=O)cc1 (configuration not stated),4%,-17%
CCOc1ccc(NC(=O)Cn2c(=O)nc(-c3ccccc3)c3ccccc32)cc1,12%,-8%
Cc1cc(C)cc(NC(=O)c2sc3nc4n(c(=O)c3c2C)N=C(c2ccccc2)CS4)c1,-10%,14%
Cc1cc(C)c(NC(=O)Cn2c(=O)n(-c3ccc(CC(=O)NCC4CCCO4)cc3)c(=O)c3ccccc32)c(C)c1 (configuration not stated),11%,-2%
CCOc1ccc(C(=O)Nc2ccc3c(c2)OCCO3)cc1Br,4%,33%[activator]
CCOC(=O)c1sc(NC(=O)c2cc(-c3ccc(F)cc3)on2)c(C(=O)OCC)c1C,-6%,-5%
O=C(NCCc1ccc(Cl)cc1)c1ccc(CS(=O)Cc2cccc(Cl)c2)o1 (configuration not stated),-23%,?
COC(=O)c1sc2cccc(F)c2c1S(=O)(=O)NCc1ccccc1Cl,?,8%
CCOc1ccc(NS(=O)(=O)c2ccc3c(c2)CCN3C(C)=O)cc1,-38%,?
Cc1cccc(NC(=O)c2sc3nc4n(c(=O)c3c2C)N=C(c2ccc(F)cc2)CS4)c1C,-11%,-14%
Cc1cn(C)c(CC(=O)NCc2ccc(Cl)cc2)c1C(=O)O,-3%,-6%
CCCCCn1c(=O)c2c(nc3n2CCN3c2ccc(Br)cc2)n(C)c1=O,7%,2%
Cc1ccc(N(C)C(=O)CC(C)S(=O)(=O)c2ccc3c(c2)NC(=O)CO3)cc1 (configuration not stated),1%,-1%
NS(=O)(=O)c1ccc(CCNC(=O)c2ccc3nc(Cc4ccccc4)oc3c2)cc1,-2%,0%
Cc1ccc(-n2ncc(C(=O)NCCCN3CCCCC3)c2C2CCN(C(=O)OC(C)(C)C)CC2)cc1,?,-13%
O=C(NCCc1ccc(Cl)cc1)c1ccc(CS(=O)(=O)c2ccc(Cl)cc2)o1,?,?
CCCC(=O)OC[C@@H](OC(=O)CCC)[C@@H](OC(=O)CCC)[C@H](Cn1c2nc(=O)[nH]c(=O)c-2nc2cc(C)c(C)cc21)OC(=O)CCC,·,-8%
SMILES,PMP22 txn prim,HTT promoter inh
CCOC(=O)c1ccc(NC(=O)CC2C(=O)N(c3ccccc3)C(=O)N2Cc2cccs2)cc1 (configuration not stated),6%,-25%
CC(C)c1ccc(NC(=O)CSC2=Nc3ccccc3C3=NC(CC(=O)NCc4ccco4)C(=O)N23)cc1 (configuration not stated),7%,?
CCOC(=O)c1cc(S(=O)(=O)NCc2ccc(C)cc2)[nH]n1,18%,0%
COc1ccc(NS(=O)(=O)c2ccc3c(c2)n(C)c(=O)c(=O)n3C)cc1Cl,?,-18%
CCOC(=O)c1c(C)oc2nc(C)nc(NCc3ccccc3Cl)c12,-5%,8%
COc1ccc(OCC(=O)NC2CC(=O)N(c3cccc(OC)c3)C2)cc1 (configuration not stated),4%,-17%
CC(C=CC=C(C)C=CC1=C(C)CCCC1(C)C)=CC=CC=C(C)C=CC=C(C)C=CC1=C(C)CCCC1(C)C,·,7%
COC(=O)c1c(-c2ccc(Cl)cc2)noc1N1CCN(c2ccc(C)cc2C)CC1,10µM*,-16%
COc1ccc(CCNC(=O)c2sc3nc4n(c(=O)c3c2C)CCCC4)cc1OC,-137%,20%
O=C(Nc1nc2cccc(-c3ccc(CN4CCS(=O)(=O)CC4)cc3)n2n1)C1CC1,·,25%
CCOc1ccc(N2CC(c3nc4ccccc4n3CCOc3ccccc3OC)CC2=O)cc1 (configuration not stated),?,?
O=C(COc1ccccc1Cl)Nc1nnc(S(=O)(=O)N2CCCC2)s1,-17%,-14%
COCCn1c(=NC(=O)c2ccc3c(c2)OCCO3)sc2cc(C(=O)OC)ccc21,1%,?
O=C(NCCn1cc(SCc2ccc(F)cc2)c2ccccc21)c1cccs1,?,28µM*
Cc1coc2c(C)c3oc(=O)c(CCC(=O)NCCc4ccccc4)c(C)c3cc12,?,-5%
CCOc1ccc(Cn2c(CNS(=O)(=O)c3ccc([N+](=O)[O-])cc3)nc3cccnc32)cc1,-23%,-7%

# Compounds above containing fluorine:
SMILES,PMP22 txn prim,HTT promoter inh
CCCOc1ccc(CNC(=O)C2CCN(c3nc4ccccc4nc3C(F)(F)F)CC2)cc1,-15%,1%
Cc1cc(C)c(NC(=O)Cn2cc(S(=O)(=O)Cc3ccccc3F)c3ccccc32)c(C)c1,0%,-13%
O=C(Nc1ccc(Br)cc1)C1CCCN1S(=O)(=O)c1ccc(F)cc1 (configuration not stated),-7%,35µM*
COc1ccc(NC(=O)CN2CCN(CC(=O)Nc3ccccc3F)CC2)c(OC)c1,-33%,?
CN(C)S(=O)(=O)c1ccc2c(c1)N(CC(=O)Nc1ccc(OC(F)(F)F)cc1)C(=O)CS2,9%,?
Cc1ccc(OCc2nc(-c3ccc(C(=O)N4CCN(c5ccccc5F)CC4)cc3)oc2C)cc1,?,-19%
COc1ccc(-c2[nH]ncc2C(=O)NCc2ccc(F)cc2)cc1,0%,-21%
O=C(CSC1=Nc2ccccc2N=C(c2ccc(F)cc2)C1)Nc1cccc(C(F)(F)F)c1,?,?
CCOC(=O)c1sc(NC(=O)c2cc(-c3ccc(F)cc3)on2)c(C(=O)OCC)c1C,-6%,-5%
COC(=O)c1sc2cccc(F)c2c1S(=O)(=O)NCc1ccccc1Cl,?,8%
Cc1cccc(NC(=O)c2sc3nc4n(c(=O)c3c2C)N=C(c2ccc(F)cc2)CS4)c1C,-11%,-14%
O=C(NCCn1cc(SCc2ccc(F)cc2)c2ccccc21)c1cccs1,?,28µM*
